D2 agonist: Beta-Arrestin HTS for Positive Allosteric Modulators of the Human D2 Dopamine Receptor: Agonists; D(2) dopamine receptor (Homo sapiens), P14416; DiscoveRx PathHunter D2 beta-arrestin, luminescence, 90 min; 100% = 57 uM dopamine signal; activation, % (no concentration beside the values); 360,000 compounds, 0.084% hits; in the data active = activation above about 40%; inconclusive = about 15% to 40%; inactive = below about 15%; also: compound concentration not given in the record; the text of the record calls up to 30% inactive
Target sequence (P14416 whole entry, looked up): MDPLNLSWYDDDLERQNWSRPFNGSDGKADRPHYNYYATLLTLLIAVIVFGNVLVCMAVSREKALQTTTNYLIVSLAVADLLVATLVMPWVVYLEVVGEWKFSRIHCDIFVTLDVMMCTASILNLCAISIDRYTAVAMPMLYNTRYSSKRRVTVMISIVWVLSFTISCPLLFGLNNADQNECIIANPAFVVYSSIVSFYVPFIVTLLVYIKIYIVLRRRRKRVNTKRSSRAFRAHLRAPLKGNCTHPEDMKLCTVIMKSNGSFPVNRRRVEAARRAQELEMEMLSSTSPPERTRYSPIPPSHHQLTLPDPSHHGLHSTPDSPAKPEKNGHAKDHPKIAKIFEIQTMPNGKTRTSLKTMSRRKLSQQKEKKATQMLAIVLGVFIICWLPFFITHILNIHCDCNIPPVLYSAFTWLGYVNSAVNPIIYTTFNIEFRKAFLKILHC
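DiscoveRx PathHunter D2 beta-arrestin cells (2,100/well) attached overnight, then compound-stimulated 90 min at 37 C in HBSS/10 mM HEPES/0.1% Tween-20 buffer; beta-galactosidase complementation read by luminescence after 1 h at ambient temperature. Dopamine 57 uM final (EC100) as control.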
CtBP-E1A inh: qHTS Assay for Inhibitors of the CtBP/E1A Interaction. CtBP / adenovirus E1A interaction (AlphaScreen). AlphaScreen GST-E1A/His-CtBP binding, 1536-well; active compounds read low; control for the full effect not named in the record. activity change, % (no concentration beside the values). 340,000 compounds, 0.49% hits; in the data active means activity change below about -65%; inconclusive means about -30% to -65%; inactive means above about -30%; also: % is scaled to controls: 0 for no effect and ±100 for the full control effect
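Steps: dispense buffer (Tris pH 8.0, NaCl 300 mM, TCEP 1 mM, BSA, Tween 20); add 5X protein mix (GST-E1A, His-CtBP, 125 nM each); pin 23 nL compound; 2 h at 37 °C, dark; add 5X beads (50 ug/mL); 1 h; read.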
TRPML1 agonist: qHTS for Agonists of the Human Mucolipin Transient Receptor Potential 1 (TRPML1); 410,000 compounds, 0.12% hits; TRPML1-expressing cells, Ca2+ dye fluorescence, FDSS; host cell line not named in the record; reference of the full effect not given here; activation, % (test concentration not listed); Mucolipin-1 (Homo sapiens), Q9GZU1; AID 624414, 2012; in the data active = activation above about 50%; inconclusive = about 30% to 50%; inactive = below about 30%; also: 0% is about no effect; the text of the record puts the active cut at 80%
Target sequence (Q9GZU1 whole entry, looked up): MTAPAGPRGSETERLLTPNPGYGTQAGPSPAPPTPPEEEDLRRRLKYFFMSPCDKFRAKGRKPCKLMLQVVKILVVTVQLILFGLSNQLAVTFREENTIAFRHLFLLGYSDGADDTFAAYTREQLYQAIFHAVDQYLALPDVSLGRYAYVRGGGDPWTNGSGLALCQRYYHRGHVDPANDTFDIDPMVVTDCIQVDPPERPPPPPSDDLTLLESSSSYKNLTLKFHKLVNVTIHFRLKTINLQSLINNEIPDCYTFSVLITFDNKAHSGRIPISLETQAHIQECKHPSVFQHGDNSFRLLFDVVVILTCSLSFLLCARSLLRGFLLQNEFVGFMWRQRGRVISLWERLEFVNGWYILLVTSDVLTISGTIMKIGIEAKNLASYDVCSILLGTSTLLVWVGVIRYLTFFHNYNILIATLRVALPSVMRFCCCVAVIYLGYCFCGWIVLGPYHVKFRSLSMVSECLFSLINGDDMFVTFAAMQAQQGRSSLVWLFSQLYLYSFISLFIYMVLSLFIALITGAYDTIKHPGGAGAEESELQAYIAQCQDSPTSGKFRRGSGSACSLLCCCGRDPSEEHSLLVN
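Kinetic FDSS Ca2+ read in Tet-induced TRPML1-DL cells (ABD Ca8 dye plus quencher, 45-90 min RT loading): baseline, then compound, then 110 s agonist window; EC80 agonist 54-4 at 4uM final added afterwards for a 110 s antagonist window.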
PINK1 expr mod: A Quantitative High throughput Screen to Identify Chemical Modulators of PINK1 Expression | PINK1 immunofluorescence, high-content cytometry, 24 h | Potency, µM (highest dose often 76.6 µM), for the others: top-dose activation (PINK1 increase), actives largely listed as activators | 410,000 compounds, 0.2% hits | AID 624263, 2012; active = well fitted activation curve with a large enough effect; inconclusive = small, poorly fitted or top-dose-only effect; inactive = flat fitted curve, though single readings scatter; cell line not stated here;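 also: potency is read from the fitted curve at half-maximal effect; % of control where 0% means no effect; nearly all actives have a fitted effect of over 65% in size; a mitochondrial uncoupler was the plate control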
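PINK1 protein level read as immunofluorescence by microplate cytometer in a fixed, stained stable cell line after 24 h exposure to five compound concentrations, with CCCP as control.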
D2 potentiator: Beta-Arrestin HTS for Positive Allosteric Modulators of the Human D2 Dopamine Receptor: Potentiators; D(2) dopamine receptor (Homo sapiens), P14416; DiscoveRx D2 beta-arrestin cells, luminescence, 90 min; 100% = 57 uM dopamine signal; potentiation, % (no concentration beside the values); 360,000 compounds, 0.23% hits; active = potentiation of 50% or more; inconclusive = 30% to 50%; inactive = 30% or less;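 also: compound concentration not given in the record; tested on top of an EC20 dose of dopamine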
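PathHunter beta-arrestin assay in DiscoveRx D2 cells. Compounds were added with an EC20 of dopamine (50 nM final) for 90 min at 37 deg C. Luminescence was read 1 h after detection reagent, with 57 uM dopamine as the EC100 control.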
Six1-Eya2 blk: qHTS Assay for Inhibitors of the Six1/Eya2 Interaction | Homeobox protein SIX1 (Homo sapiens) + Protein phosphatase EYA2 (Homo sapiens), … | AlphaScreen GST-Six1/His-Eya2 binding, biochemical; active compounds read low; control for the full effect not named in the record | activity change, % (concentration not given with the values) | 360,000 compounds, 0.56% hits | AID 651725, 2012; in the data active = activity change below about -65%; inconclusive = about -30% to -65%; inactive = above about -30%; also: % is scaled to controls: 0 for no effect and ±100 for the full control effect
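AlphaScreen luminescence read after one hour at 37 °C in darkness. Pin-transferred compounds met GST-Six1 and His-Eya2 protein (5X stock 250 nM/500 nM) plus glutathione donor and Ni-chelate acceptor beads (5X, 50 ug/mL).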
Numbers without * were called inactive; ? = inconclusive; . = no result given; [ ] = another dose, or the depositor's remark.

SMILES	D2 agonist	CtBP-E1A inh	TRPML1 agonist	PINK1 expr mod	D2 potentiator	Six1-Eya2 blk
COc1ccc(NC(=O)c2nc[nH]c2C(=O)N[C@H](C)c2ccccc2)cc1	-3.9	.	1.7	5.7%	-5	-5
CSc1nc(N)c2c3c(sc2n1)CN(C)CC3	-0.8	.	-0.1	0.6%	-51	-15
N#CC1=C(N)Oc2c(ccc3cccnc23)C1c1ccncc1 (stereo unspecified)	-4.9	?	0.7	1.9%	-6	?
COc1ccc(N2c3ccccc3CN(Cc3ccccc3)[C@@H](C)[C@H]2Cc2cccnc2)cc1	-8.7	?	1.0	?	-2	?
Cc1cccc(C)c1OCC(=O)Nc1cccc(C(=O)O)c1	0.6	6	0.3	2.9%	-8	4
O=C(Nc1cccc(S(=O)(=O)N2CCOCC2)c1)c1cc2ccccc2o1	-0.8	0	-0.6	-3.1%	1	-18
CC(=O)NS(=O)(=O)c1ccc(NC(=O)c2cc(-c3cccs3)nc3ccccc23)cc1	0.6	-11	0.9	0.8%	-1	-5
CCOC(=O)c1nn(-c2ccc(Cl)cc2C)ccc1=O	-5.2	-5	0.1	-0.6%	-4	3
CCCOc1ccc(C(=O)N2CCCc3ccccc32)cc1	-0.2	4	1.0	.	-17	19
Cn1sc(NC(=O)c2cccc(Cl)c2)nc1=O	-2.4	2	0.6	-1.5%	0	-2
Cc1ccccc1C(=O)N1CCC(C(=O)O)CC1	-3.1	2	-0.3	2.5%[38.3 µM]	-5	6
COc1cc(CNCc2ccccn2)ccc1OCc1ccccc1Cl	1.1	-29	0.4	4.1%	-15	-27
O=C(CN1C(=O)NC2(CCOc3ccccc32)C1=O)c1ccc(F)cc1 (stereo unspecified)	5.7	3	2.6	-1.0%	1	3
O=S(=O)(c1cccc(-n2cnnn2)c1)N1CCOCC1	-0.8	4	0.7	2.0%[38.3 µM]	8	4
CC1(C)CC(=O)C(N=Nc2ccc(S(=O)(=O)N3CCCCCC3)cc2)=C(O)C1	-1.9	-10	0.9	0.6%	-15	-15
CN(C)CCNCc1ccc(OC2CCCC2)cc1	1.8	0	-0.5	3.0%[38.3 µM]	-5	3
COC(=O)c1sc(NC(=O)CSc2nc3cccnc3n2C2CCCCC2)nc1C	-2.9	25	-0.4	1.6%	-14	19
CC(C)CN(C(=O)CC(C)c1ccccc1)c1c(N)n(Cc2ccccc2)c(=O)[nH]c1=O (stereo unspecified)	-3.2	6	-0.3	-0.9%	-6	-6
O=C(Nc1ccc(Br)cc1)C1CC=CCC1C(=O)OCC1CCCO1 (stereo unspecified)	-3.1	0	0.2	4.1%[38.3 µM]	-14	-1
COC(=O)C1(CO)NC(c2cccs2)C2C(=O)N(c3ccccc3)C(=O)C21 (stereo unspecified)	-3.2	0	0.5	0.9%	-16	-1
CC(=O)c1ccc(NC(=O)CCS(=O)(=O)c2ccc3c(c2)n(C)c(=O)c(=O)n3C)cc1	1.5	8	0.2	1.6%	-3	4
O=C(Nc1ccc(Br)cc1F)C1CCN(c2nnc(-n3cccc3)s2)CC1	0.5	3	0.1	13%	-5	2
CCOc1ccccc1NC1c2ccccc2C(=O)N1c1ccc(C)cn1 (stereo unspecified)	-2.3	7	0.4	-0.8%	-8	-10
CC(C)C[C@@H](CNCC(=O)[C@H](C)NC(=O)c1[nH]cnc1C(=O)N[C@H](CN)CC(C)C)NC(=O)c1nc[nH]c1C(=O)N[C@@H](C)C(=O)O	-0.2	-8	-0.7	0.4%	-7	-8
CC(C)N1C(=S)SC(C)(C)C1n1oc(=O)n(-c2cccc(Cl)c2)c1=O (stereo unspecified)	4.3	5	2.3	5.3%	-8	5

Reprinted from the part before: three compounds, then new ones.
Each structure is followed by: D2 agonist | CtBP-E1A inh | TRPML1 agonist | PINK1 expr mod | D2 potentiator | Six1-Eya2 blk
- CCOc1ccccc1NC1c2ccccc2C(=O)N1c1ccc(C)cn1 (stereo unspecified)
  -2.3 | 7 | 0.4 | -0.8% | -8 | -10
- CC(C)C[C@@H](CNCC(=O)[C@H](C)NC(=O)c1[nH]cnc1C(=O)N[C@H](CN)CC(C)C)NC(=O)c1nc[nH]c1C(=O)N[C@@H](C)C(=O)O
  -0.2 | -8 | -0.7 | 0.4% | -7 | -8
- CC(C)N1C(=S)SC(C)(C)C1n1oc(=O)n(-c2cccc(Cl)c2)c1=O (stereo unspecified)
  4.3 | 5 | 2.3 | 5.3% | -8 | 5
- CC(C)(C)C(=O)Nc1ccc2oc(-c3cc(F)c(F)cc3Cl)nc2c1
  1.2 | 3 | 0.3 | 5.4% | -11 | -4
- O=C(Cn1cnc2c(nnn2Cc2ccccc2)c1=O)NCc1ccco1
  -1.7 | -3 | 0.0 | 0.5% | -3 | -7
- COc1ccc(CNC(=O)Cc2csc(Nc3nc(=S)[nH]c4ccccc34)n2)cc1
  -2.3 | -17 | 0.0 | 4.7% | -9 | -12
- CN1CCN(C(=S)c2cn(Cc3cccc(F)c3)c3ccccc23)CC1
  -6.1 | . | 0.6 | 1.6% | -9 | -2
- O=C1NC(=O)C2(CCCCC2)N1
  -5.3 | 1 | -0.1 | -1.2% | -9 | -3
- COc1cccc(CC(=O)Nc2ccc3c(c2)CCC3)c1
  -0.3 | 10 | 2.0 | -1.7% | -11 | 5
- COc1cc(CNC2CCCCC2OC)cc(OC)c1 (stereo unspecified)
  0.1 | . | 1.0 | 1.6% | -2 | -1
- O=C(NC1CC2CCCC(C1)N2C(=O)N1CCCCC1)C1CCCCC1 (stereo unspecified)
  -2.7 | 0 | -0.6 | -1.4% | 7 | 4
- CCN(CC)S(=O)(=O)c1ccc(N2CCOCC2)c(NC(=O)CCC2CCCCC2)c1
  -2.7 | 0 | 0.4 | 1.6% | -13 | -1
- CCc1ccc(OCC(=O)N2CC(C(=O)OC)Oc3ccccc32)cc1 (stereo unspecified)
  1.4 | . | 2.4 | 1.0% | -10 | 12
- CSc1ccc(S(=O)(=O)NCC(=O)OC2CCOC2=O)cc1[N+](=O)[O-] (stereo unspecified)
  -1.0 | 4 | 0.4 | 9.6% | -15 | 0
- CCc1cc(C(=O)Nc2ccccc2)cs1
  -3.5 | 7 | -0.3 | -2.2%[38.3 µM] | -18 | 4
- NC(=O)c1ccccc1NC(=O)/C=C/C(=O)O
  -3.9 | 3 | 1.3 | 1.2% | 3 | 7
- COc1ccc(-c2nnn(Cc3nc(N)nc(N4CCOCC4)n3)n2)cc1OC
  -3.4 | 4 | -0.2 | 1.0% | -11 | 5
- O=C(c1ccc(F)cc1)C(C(=O)N1CCCCC1)n1ccccc1=O (stereo unspecified)
  -9.8 | 0 | 0.8 | 1.0% | -2 | 5
- COc1cc(OC)cc(C(=O)Nc2ccn(C)n2)c1
  -1.1 | -2 | 0.1 | 2.6% | -1 | 7
- Cc1c(NS(=O)(=O)c2cccc(C(=O)N3CCC(C)CC3)c2)c(=O)n(-c2ccccc2)n1C
  -1.0 | 7 | -0.6 | 0.9% | -5 | 5
- S=C(Nc1ccccc1Cl)NC1CC2CCCC(C1)N2C1CC1 (stereo unspecified)
  -4.4 | . | 0.7 | 0.2% | -7 | 6
- CC(C(=O)Nc1ccccc1)N(c1cccc(Cl)c1)S(C)(=O)=O (stereo unspecified)
  -0.8 | 0 | 2.2 | -2.6% | -3 | 1
- CC1(C)N=C(N)NC(Nc2cccc(Br)c2)=N1
  -3.1 | -5 | 0.0 | -0.6% | -31 | -5
- COc1ccc(S(=O)(=O)NCC(=O)N(CC2CCCO2)C(C(=O)NC2CCCC2)C(C)C)cc1 (stereo unspecified)
  -1.3 | 17 | -1.5 | 1.6% | -7 | 2
- COc1ccc2c(c1)CC(C)C/C2=N\NC(=O)c1ccco1 (stereo unspecified)
  -2.0 | -14 | -1.0 | 2.6% | -4 | 2
- O=Cc1c(Sc2ccccc2)nc2ccccn2c1=O
  -2.5 | 5 | -0.4 | 0.4% | -11 | -7
- O=C(CSc1nnc(-c2ccncc2)n1-c1ccccc1)NCC1CCCO1 (stereo unspecified)
  3.3 | 5 | -0.4 | -0.9% | -4 | 9
- S=C(NCCC(c1ccccc1)c1ccccc1)Nc1cccc(Cl)c1
  -4.1 | 0 | 1.9 | ? | -16 | 0
- CC(C)CC(CO)N1CCN(C(=O)c2ccc(Cl)cc2Cl)CCC1=O (stereo unspecified)
  -1.4 | 5 | 0.1 | 0.0% | -10 | 4
- O=C(O)COc1ccc(/C=N/NC(=O)c2ccc(-c3csc(Nc4ccc(Cl)cc4)n3)cc2)cc1
  1.4 | 7 | 0.3 | 0.6% | -2 | -23
- Cc1ccc(S(=O)(=O)N2CCN(C(=O)COC(=O)CNC(=O)c3ccccc3)CC2)c(C)c1
  -2.9 | 4 | -0.4 | -3.3% | -1 | 0
- CC(=O)C(Sc1ncnc2sc3c(c12)CCCC3)C(C)=O
  -0.8 | 9 | -1.1 | -1.3% | -5 | 2
- Cc1cccc2sc(N(CCCN(C)C)C(=O)c3nc4ccccc4s3)nc12
  -0.4 | -1 | 0.5 | 1.9% | -34 | 2

The listing continues:
Each structure is followed by: D2 agonist | CtBP-E1A inh | TRPML1 agonist | PINK1 expr mod | D2 potentiator | Six1-Eya2 blk
- CC(=NNc1ccc2ccccc2n1)c1ccccc1O
  -1.1 | -11 | 2.1 | 11% | -36 | -9
- COc1ccccc1C(=O)NC(=O)COc1ccc([N+](=O)[O-])cc1
  -1.7 | 0 | 2.2 | -3.2% | -14 | -19
- COc1cccc(Cn2nnc(C(=O)NCc3ccc(F)cc3)c2N)c1
  0.8 | 3 | 1.2 | 16% | -1 | 1
- O=C(CSc1nnc(COc2ccc(F)cc2)o1)N1CCCCC1
  -3.0 | 8 | -0.6 | 3.4% | 1 | 0

Screening data (PubChem)
